High-throughput results (PubChem)
RE007 growth inh: less growth of the S. pombe RE007 Vpr strain; S. pombe RE007 Vpr strain, BacTiter-Glo ATP luminescence, 24 h; control for the full effect not named in the record; Potency, µM (titrated, usually from 92.2 µM), for inactives: at the highest dose activity change, negative = less growth; 360,000 tested, 0.21% active; active = well fitted falling curve with a large enough effect; inconclusive = small, poorly fitted or top-dose-only effect; inactive = no such curve, though single readings can be large or run the other way;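 also: nearly all actives have a fitted effect of over 50% in size; the assay follows cell death caused by Vpr and the record does not say whether a fall means rescue or toxicity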
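Fission yeast strain RE007, carrying one chromosomally integrated HIV-1 vpr copy, was seeded at OD 0.01 in PMG+AL medium with 23 nL pinned compound. After 24 h at 30 °C and 99% humidity, viability was read by BacTiter-Glo luminescence.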
2A StopGo: FMDV 2A StopGo reporter, luciferase signal; human cells with a luciferase reporter of 2A StopGo recoding; control for the full effect not named in the record; 410,000 tested, 1.2% active; Potency, µM (doses to about 57.9 µM), without a hit: at the highest dose signal change, negative = less light; active = well fitted falling curve with a large enough effect; inconclusive = small, poorly fitted or top-dose-only effect; inactive = no such curve, though single readings can be large or run the other way; tested in HEK293T cells; also: nearly all actives have a fitted effect of over 45% in size; luciferase light after 4 h
The depositor's hits bear a star; ? = inconclusive; & = joins results of further samples; [ ] = remark or other dose. % is scaled to controls: 0 for no effect and ±100 for the full control effect; potency is read from the fitted curve at half-maximal effect.

No.	Compound	2A StopGo	RE007 growth inh
1	O=C(O)c1cc(Oc2ccc(C(F)(F)F)cc2Cl)ccc1[N+](=O)[O-]	0%	-3%
2	NC(Cc1ccc(F)cc1)c1csc(Nc2cnccn2)n1 (configuration not stated)	-26%	-13%
3	CN(CCc1ccccc1)C(=O)c1ccc(NC(=O)Cc2cccc(NC(=O)C3CCN(C(=O)CCc4ccccc4)CC3)c2)cc1	-30%	3%
4	C1=CCN(c2nc(N3CCOCC3)nc(N3CCCc4ccccc43)n2)CC1	?	-21%
5	OC[C@@H]1CN(Cc2ccc(Cl)cc2)C[C@H](n2cnc3c(NC4CCC4)ncnc32)O1	-18%	-1%
6	COc1ccccc1CCC(=O)NNC(=O)Cn1nc(C)cc1C	1%	13%
7	Cc1cccc(C)c1-n1nnnc1C1(C)CCC(=O)N1CCc1ccc(O)cc1 (configuration not stated)	-7%	5%
8	CS(=O)CC(O)(c1ccc(F)cc1)C1CC1 (configuration not stated)	-22%	-3%
9	COc1ccc(-c2nc3c(C)cc(Br)cn3c2Cc2ccccc2)cc1OC	-20%	-22%
10	COC[C@H]1CCCN1c1ccc2c(c1)O[C@@H](COCc1ccccc1)CN([C@H](C)c1ccccc1)S2(=O)=O	-3%	19%
11	COc1ccccc1CNC(=O)Nc1nc(C(N)CCc2ccccc2)cs1 (configuration not stated)	?	1%
12	O=C1NC[C@@H](CCCCN2C[C@H](Cc3ccc(O)cc3)N(CCc3ccccc3)C(=O)C2=O)N(CCc2ccccc2)C1=O	-16%	-17%
13	CCOC(=O)C[C@H]1c2cc(F)ccc2S(=O)(=O)N1c1cccc(OC)c1	43%[activator]	12%
14	CN(C(=O)CSc1ncccn1)C1CCS(=O)(=O)C1 (configuration not stated)	4%	1%
15	CC(C(=O)NCc1ccccc1)n1c(Cc2cc(F)cc(F)c2)nc2ccccc21 (configuration not stated)	-12%	0%
16	O=C(Nc1ccc(C(=O)O)cc1)/C(=C\c1ccc2c(c1)OCO2)NC(=O)c1ccccc1Cl	-8%	15%
17	COc1cccc(-c2nnc(NC(=O)CCS(=O)(=O)c3ccc(F)cc3)o2)c1	-18%	12%
18	O=C(C(=O)N1CCN(c2ccccc2)CC1)c1ccncc1	-12%	-7%
19	COc1ccc(Br)c(Cn2c(C)c(C(=O)N(C)Cc3ccc(F)cc3)sc2=O)c1	?	7%[18.4 µM]
20	Cc1cc(S(=O)(=O)N2CCCCC2CCNC(=O)C(=O)NCCN2CCOCC2)ccc1F (configuration not stated)	-11%	-7%
21	Clc1cccc(Cc2c(-c3ccccc3)nc3ccc(Cl)cn23)c1	19%	-5%
22	CC(=O)c1cccc(-c2cnc3c(NC=O)cc(-c4cccc(C(=O)N(C)C)c4)cn23)c1	-14%	5%
23	O=C(CCN1N=C(c2ccccc2)CCC1=O)NC1CCCCC1	5%	-19%
24	O=C(CN1C(=O)NC2(CCCCCC2)C1=O)Nc1ccc(OC(F)(F)F)cc1	-16%	0%
25	CC(C)C[C@H]1COc2cc(N3CCC[C@@H]3CO)ccc2S(=O)(=O)N1	?	5%
26	CNc1cncc(-c2ccc(S(C)(=O)=O)cc2)n1	6%	0%
27	COc1ccccc1Cc1c(-c2ccc(C#N)cc2)nc2c(C)cc(Br)cn12	-16%	-9%
28	O=C(Nc1cccc2ccccc12)c1csc([C@@H]2O[C@H](CO)[C@@H](O)[C@H]2O)n1	-6%	3%
29	CCCCCCSc1cccc(-c2nc3ccc(Cl)cn3c2NCCCC)c1	-8%&-16%	28%&-16%
30	O=C1CC[C@@H](C(=O)O)N1	-18%	-6%

Carrying on.
No.	Compound	2A StopGo	RE007 growth inh
31	C[C@H](CO)N1C[C@H](C)[C@H](CN(C)C(=O)CCC(F)(F)F)OCc2cnnn2CCCC1=O	-9%	-15%
32	CCOc1ccc(N(CC(=O)Nc2ccc(Cl)cc2)S(C)(=O)=O)cc1	59%[activator]	7%
33	COc1ccccc1CNCCS(=O)(=O)NCc1ccccc1OC	-20%	-21%
34	C[C@@H]1ON(C)[C@H]2C[C@H]3c4[nH]c5ccc(-c6ccc7c(c6)OCO7)cc5c4CCN3C[C@@H]12	-24%	-3%
35	COc1ccc(N2CCN(C(=O)C(=O)c3cccc([N+](=O)[O-])c3)CC2)cc1	-8%	-22%
36	Cc1cn([C@H]2C[C@H](O)[C@@H](/C=C/C(=O)N3CCN(Cc4ccc(F)cc4)CC3)O2)c(=O)[nH]c1=O	-17%	-11%
37	CC1(C(=O)Nc2cccc(C#N)c2)CCN1C(=O)C/C=C/c1ccccc1 (configuration not stated)	-22%	-2%[18.4 µM]
38	C1CCN2CC3CC(CN4CCCC[C@@H]34)[C@H]2C1	-19%	11%[18.4 µM]
39	CC(=O)N[C@@H]1C=C[C@@H](CC(=O)NCc2ccc(Cl)cc2)O[C@@H]1CO	-23%	-17%
40	Cc1ccc(S(=O)(=O)N2CCC(C(=O)N3CCN(c4ccccn4)CC3)CC2)cc1C	-18%	-3%
41	O=C(Nc1ccccc1Oc1ccccc1)[C@@H]1O[C@H](CO)[C@H](O)[C@H](O)[C@H]1O	-23%	2%
42	O=C(NCc1cccnc1)c1cc(C2CCCCN2C(=O)c2ccc(Cl)cc2)on1 (configuration not stated)	-11%	1%[18.4 µM]
43	CCCCCNC(=O)C(c1ccccc1)n1c(=O)c(-c2cc3ccccc3[nH]2)nc2ccccc21 (configuration not stated)	-7%	3%
44	COc1ccc(-c2ccc3oc(-c4ccc(OC)cc4)c(C#CCO)c3c2)cc1	8.9µM*	2%
45	Cc1cc(C(O)c2ncc(-c3ccccc3C)[nH]2)ccc1F (configuration not stated)	62%[activator]	-23%
46	O=S1(=O)CC(N2CCCC2)CN1Cc1cn(Cc2ccc(F)cc2)nn1 (configuration not stated)	-8%	8%
47	COc1cc(F)ccc1-c1csc(C(O)c2ccccc2)n1 (configuration not stated)	-5%	-2%
48	COc1cc(OC)cc(C2=Cc3ccc(OC)cc3C(CC(C)=O)N2c2ccc(C#CC3(N)CCCCC3)cc2)c1 (configuration not stated)	-15%	-1%
49	Cc1ccc(S(=O)(=O)N2C[C@H]3n4c(=O)ccc(=O)n4C[C@H](OC(=O)NC4CC4)[C@@]3(O)C2)cc1	-21%	2%
50	CCC(C)CN1C(=O)CN(S(C)(=O)=O)CC1(C)C(=O)NCc1ccccc1 (configuration not stated)	-16%	-10%
51	CSCCNC(=O)C1(C)CCN1C(=O)C/C=C/c1ccccc1 (configuration not stated)	-11%	6%[18.4 µM]
52	COc1ccccc1Cc1c(-c2ccc(OC)c(OC)c2)nc2ccc(Cl)cn12	-10%	-20%
53	C[C@@H]1CN([C@H](C)CO)C(=O)CCCn2nncc2CO[C@H]1CN(C)C(=O)c1ccc(N2CCN(C)CC2)cc1	-19%	15%
54	Cn1nc(C(C)(C)C)cc1C(=O)N1CCCCC1c1cc(C(=O)Nc2cccc(C#N)c2)no1 (configuration not stated)	?	5%
55	CC(=O)Nc1cccc(-c2ccnc3c2CC(C(=O)Nc2ccc4c(c2)OCO4)O3)c1 (configuration not stated)	0%	-5%
56	CC(=O)c1cccc(-c2ccnc3c2CC(C(=O)NCc2cccs2)O3)c1 (configuration not stated)	-10%	6%[18.4 µM]
57	CCCCNC(=O)c1ccc2nc(CC)c(N(CCC(C)C)CCN(C)C)n2c1	-13%	-12%
58	CCCCn1nnnc1C(c1cc2ccccc2o1)N(C)Cc1ccc(Cl)cc1 (configuration not stated)	-24%	-11%
59	CCN(CC(=O)Nc1c(F)cccc1F)C(=O)c1c(-c2ccccc2Cl)noc1C	-8%	4%
60	COc1cccc(-c2cc(NC=O)c3ncc(-c4cc(OC)c(OC)c(OC)c4)n3c2)c1	?	-29%

(cont.)
No.	Compound	2A StopGo	RE007 growth inh
61	O=[N+]([O-])c1ccc(Cl)c(CN2CCN(c3ncc(Cc4ccccc4)cn3)CC2)c1	?	-4%
62	COc1ccc(CCNC(=O)C(F)(F)F)cc1S(N)(=O)=O	-15%	3%
63	Nc1ncnc2c1ncn2[C@@H]1O[C@H](COP(=O)(O)OP(=O)(O)OP(=O)(O)O)[C@@H](O)[C@H]1O	-16%	3.2µM*
64	CC(=O)OCC1=C(C(=O)OC(C)(C)C)N2C(=O)[C@@H](NC(=O)Cc3ccccc3)[C@H]2SC1	-14%	2%
65	O=C(C[C@H]1C[C@H]2c3cc(NS(=O)(=O)c4ccc(F)cc4)ccc3O[C@H]2[C@H](CO)O1)NCc1cc(F)ccc1F	-14%	4%
66	O=C(Cc1ccc(S(=O)(=O)N2CCOCC2)s1)N1CCN(S(=O)(=O)c2cccc(F)c2)CC1	-28%	-3%
67	CC1(C)CC(=O)C=C(c2cccc(OC(=O)c3ccc(-c4ccccc4)cc3)c2)C1=O	37%[activator]	-2%
68	O=C(Nc1ccc(Oc2ccccc2)cc1)c1ccc2sc([C@H]3C[C@H](O)[C@@H](CO)O3)nc2c1	16µM*	-6%[18.4 µM]
69	Cc1noc(C)c1C(=O)N1CCC1(C)C(=O)NS(=O)(=O)Cc1cccc(Cl)c1 (configuration not stated)	-8%	22%
70	COc1ccc(-c2csc(C(C)(O)c3cccnc3)n2)cc1 (configuration not stated)	0%	10%[18.4 µM]
71	NC(=O)CSc1nnc(-c2cccc(S(=O)(=O)N3CCOCC3)c2)o1	-6%	-7%
72	CNc1cncc(-c2ccc(NS(C)(=O)=O)cc2)n1	14%	3%[18.4 µM]
73	Cc1ccccc1Sc1ccc(N)cn1	2%	13%
74	COc1ccc(-c2cccc3c2C2CC3CCN2C(=O)OCc2ccccc2)cc1 (configuration not stated)	-28%	-17%
75	COc1ccc(-c2cc3nc(C)cc(N4CCN(C(=O)c5ccco5)CC4)n3n2)cc1	-4%	-27%
76	Cc1ccc(S(=O)(=O)N2[C@H](CC(=O)c3cccc4ccccc34)OC[C@@H]2C(C)C)cc1	1%	13%
77	CCC1NC(=O)c2cccnc2-n2c1nc1cc(OC)c(OC)cc1c2=O (configuration not stated)	-10%	0%
78	COc1cccc(-c2nc3nc(C)cc(C)n3c2Nc2c(C)cccc2C)c1	-20%	-21%
79	CC1(C(=O)NS(=O)(=O)c2ccccc2)CCN1C(=O)c1cccc2ccccc12 (configuration not stated)	-26%	0%
80	O=S1(=O)CC(N2CCN(CC3CC3)CC2)CN1Cc1cn(Cc2ccccc2C(F)(F)F)nn1 (configuration not stated)	-16%	-18%
81	O=C(OCC(=O)N1CCCCCC1)c1cccc(Cl)c1Cl	74%[activator]	4%
82	CS(=O)(=O)c1ccc(CNC(=O)C2(C(F)(F)F)CC(CCCO)CCCO2)cc1 (configuration not stated)	0%	8%
83	COCCCNC(=O)c1csc([C@@H]2O[C@H](CO)[C@H](O)[C@H](O)[C@H]2O)n1	-19%	5%
84	OC(c1cccc(Cl)c1)c1ncc(-c2ccccc2Cl)[nH]1 (configuration not stated)	69%[activator]	-7%
85	CC1(C(=O)NS(=O)(=O)c2ccccc2)CCN1C(=O)CC1CC1 (configuration not stated)	-10%	-1%
86	Cc1ccc2ccc(C(Nc3ccccc3)c3ccc(F)cc3)c(O)c2n1 (configuration not stated)	29%	-15%
87	Cc1c(NC(=O)c2nn(C(C)C)c(=O)c3ccccc23)c(=O)n(-c2ccccc2)n1C	0%	-14%
88	CCOC(=O)c1cc2c(c(-c3ccccc3)n1)[C@@H](CCO)N(S(=O)(=O)C(C)(C)C)C2	-16%	-5%
89	CC(C)(C)c1ccc(S(=O)(=O)NC(=O)C2(C)CCN2C(=O)Cc2ccccc2Cl)cc1 (configuration not stated)	-9%	7%[18.4 µM]
90	CCN1CCCC1CNC(=O)Cn1cc(C)c(=O)[nH]c1=O (configuration not stated)	-2%	11%

(listing goes on)
No.	Compound	2A StopGo	RE007 growth inh
91	Cc1cccc(C)c1NC(=O)C1C(c2ccc3c(c2)OCO3)=Nc2ccccc2N1C(=O)c1ccccn1 (configuration not stated)	20%	-2%
92	C[C@@H]1CCCCO[C@H](CN(C)C(=O)Nc2ccc(C(F)(F)F)cc2)[C@@H](C)CN([C@H](C)CO)C(=O)c2cc(NC(=O)c3ccncc3)ccc2O1	0%	0%
93	Cc1ccc(S(=O)(=O)Nc2ccccc2NS(=O)(=O)c2ccc(C)cc2)cc1	-17%	6%[18.4 µM]
94	Cc1ccc(S(=O)(=O)NC(=O)C2(C)CCN2C(=O)CC2CCCC2)nc1 (configuration not stated)	0%	0%
95	O=C(C[C@H]1C[C@@H]2c3cc(NC(=O)Nc4ccccc4F)ccc3O[C@@H]2[C@H](CO)O1)NCc1ccccn1	4%	1%
96	COc1cc(C(=O)NCCCNC(=O)c2cc(OC)c(OC)c(OC)c2)cc(OC)c1OC	-20%	-4%
97	CC1(C(=O)NS(=O)(=O)C2CC2)CCCN(C(=O)c2cccc(OC(F)(F)F)c2)C1 (configuration not stated)	-8%	0%
98	COc1cccc(C(NC(C)=O)c2nc(-c3cccc(C#N)c3)cs2)c1 (configuration not stated)	-14%	3%

Compounds from the list above with a nitro group on carbon (3):
No.	Compound	2A StopGo	RE007 growth inh
1	O=C(O)c1cc(Oc2ccc(C(F)(F)F)cc2Cl)ccc1[N+](=O)[O-]	0%	-3%
35	COc1ccc(N2CCN(C(=O)C(=O)c3cccc([N+](=O)[O-])c3)CC2)cc1	-8%	-22%
61	O=[N+]([O-])c1ccc(Cl)c(CN2CCN(c3ncc(Cc4ccccc4)cn3)CC2)c1	?	-4%

An excerpt; count on the stated rates, not on these rows.
